VACV mCherry inh: inhibitors of vaccinia virus infection (mCherry reporter signal); Vaccinia virus mCherry reporter infection, fluorescence; about a quarter of the inactives have no number; Potency, µM (top dose mostly 36.5 µM), for the others: top-dose activity change, negative = inhibition, usual class: inhibitors; 310,000 tested, 0.63% active; active = well fitted inhibition curve with a large enough effect; inconclusive = small, poorly fitted or top-dose-only effect; inactive = no such curve, though single readings can be large or run the other way; tested in A549 cells; further: nearly all actives have a fitted effect of over 35% in size; inactives centre near -10
Vaccinia Venus: inhibitors of vaccinia virus (Venus reporter) | Vaccinia virus Venus reporter expression, fluorescence | Potency, µM (doses to about 36.5 µM), inactives show at the highest dose activity change, negative = inhibition, hits mostly inhibitors | 330,000 tested, 0.46% active | AID 720580; active means well fitted inhibition curve with a large enough effect; inconclusive means small, poorly fitted or top-dose-only effect; inactive means no such curve, though single readings can be large or run the other way; tested in A549 cells; further: nearly all actives have a fitted effect of over 30% in size; inactives centre near -10
Starred values were filed as active, the others as inactive; i = inactive; ? = inconclusive; . = not tested or not shown; & = joins results of further samples; [ ] = dose if it differs, or a comment. On the % scale 0 is the no-effect control and ±100 the full control effect; potency means the concentration at half of the fitted maximal effect.

Below each compound – Vaccinia Venus	VACV mCherry inh
Cc1ccc(-n2ncc(C(=O)NCCN3CCC(Cc4ccccc4)CC3)c2C2CCN(C(=O)OC(C)(C)C)CC2)cc1
→ 11µM*	?
CCCCC(=O)Nc1ccc(NC(=O)c2ccc(C)c([N+](=O)[O-])c2)cc1OC
→ -24%	-2%
COCCc1nnc(NC(=O)C23CC4CC(CC(C4)C2)C3)s1
→ -3%	i
Cc1ccccc1NC(=O)c1c(-c2ccccc2)noc1C
→ -8%	.
Cc1ccc(NC(=O)c2c(NC(=O)C(F)(F)F)sc3c2CCCCC3)cc1
→ ?	?
COc1ccc(C(C)=O)cc1CN1C(=O)NC2(CCCCC2)C1=O
→ -24%	.
CC1(C)OC2C(CO)OC(n3cnc4c(=O)[nH]c(N)nc43)C2O1 (centres undefined)
→ 0%	-2%
O=C(CN(C1CCCCC1)S(=O)(=O)c1ccccc1)NCC1CCCO1 (centres undefined)
→ -5%	3%
CCc1ccc(N(CC(=O)Nc2ccc(OC)cc2OC)S(C)(=O)=O)cc1
→ -10%	.
Brc1ccc(N=Nc2ccc3ccccc3n2)cc1
→ -3%	-1%
C=CCc1cccc(OC)c1OCCOCCNCCO
→ -16%	i
Cc1ccccc1NC(=O)c1ccc(CN2CC(=O)N3CCCCC3C2=O)cc1 (centres undefined)
→ -8%	i
Cc1nn(-c2ccccc2)c(C)c1/C=C1\C(=O)N(C)C(=S)N1C
→ -18%	-7%
COc1ccccc1-c1cc(NC=O)c2ncc(-c3ccc(S(C)(=O)=O)cc3)n2c1
→ ?	?
CCOC(=O)c1ccc(NC(=O)NNC(=O)CCc2ccc(OC)cc2)cc1
→ -9%	i
COc1ccc(-c2cc(C(=O)N(C)Cc3cccc(OC)c3OC)c3ccccc3n2)cc1OC
→ -2%	-23%
C/C(=N\Nc1cc(C)nc(-c2ccccc2O)n1)c1ccccc1
→ -18%	?
CCCCNC(=O)C[C@@H]1C[C@@]2(C(=O)OC)CCCCC=C2N(Cc2cccc3ccccc23)C1=O
→ -13%	2%
CC(C)CCc1noc(CN(CC2CCC2)CC2CCCO2)n1 (centres undefined)
→ 19%	-3%
CCOC(=O)c1cc(S(=O)(=O)Nc2ccc(F)cc2F)cn1C
→ -16%	-2%
COc1cc(OC)nc(S(C)(=O)=O)n1
→ -12%	i
CC1(C(=O)OCC(=O)Nc2ccccc2)CC1(Cl)Cl (centres undefined)
→ -4%	3%
O=[N+]([O-])c1ccc(N/N=C/c2sc(N3CCOCC3)nc2-c2ccccc2)c(S(=O)(=O)Nc2ccccc2Cl)c1
→ ?	?
COc1ccc(NC(=O)CSc2ccccc2)cc1S(=O)(=O)N1CCOCC1
→ -8%	-7%
Cc1ccc(CN(Cc2ccco2)C(=O)c2oc3c(C)c(C)ccc3c2C)cc1
→ -1%	-3%
Cc1ccc(S(=O)(=O)c2nc(-c3ccco3)oc2SC(C)c2ccccc2)cc1 (centres undefined)
→ 4%[7.34 µM]	-8%[7.34 µM]
COC(=O)COc1c(Cl)cc(C(c2c(C)[nH][nH]c2=O)c2c(C)[nH][nH]c2=O)cc1OC
→ -17%	i
O=C(COC(=O)c1cnccn1)Nc1cccc2ccccc12
→ -5%	-15%
COc1cc(OC)c(OC)cc1CN1CCSCC1
→ -1%	-9%
O=C(CCn1c(=S)oc2ccccc21)Nc1cccc(O)c1
→ -3%	i

The final seven compounds of the part above come first, to join the parts.
Below each compound – Vaccinia Venus	VACV mCherry inh
COc1ccc(NC(=O)CSc2ccccc2)cc1S(=O)(=O)N1CCOCC1
→ -8%	-7%
Cc1ccc(CN(Cc2ccco2)C(=O)c2oc3c(C)c(C)ccc3c2C)cc1
→ -1%	-3%
Cc1ccc(S(=O)(=O)c2nc(-c3ccco3)oc2SC(C)c2ccccc2)cc1 (centres undefined)
→ 4%[7.34 µM]	-8%[7.34 µM]
COC(=O)COc1c(Cl)cc(C(c2c(C)[nH][nH]c2=O)c2c(C)[nH][nH]c2=O)cc1OC
→ -17%	i
O=C(COC(=O)c1cnccn1)Nc1cccc2ccccc12
→ -5%	-15%
COc1cc(OC)c(OC)cc1CN1CCSCC1
→ -1%	-9%
O=C(CCn1c(=S)oc2ccccc21)Nc1cccc(O)c1
→ -3%	i
O=C1NCCCC1C(=O)N/N=C/c1cccc([N+](=O)[O-])c1 (centres undefined)
→ -22%	i
COc1ccc(CCC(=O)Nc2ccc3c(c2)OCO3)cc1OC
→ 0%	i
COc1cccc(OC)c1C(=O)Nc1ccc(C)cc1C(=O)c1ccccc1
→ -8%	i
O=C(NC1CCN(Cc2ccccc2)CC1)c1ccccc1OCc1ccccc1Cl
→ -15%	-3%
COc1ccc(N2CCN(C(=O)CN3C(=O)c4ccccc4S3(=O)=O)CC2)cc1
→ -16%	i
CCc1ccc(N(CC(=O)NC(C)C)C(=O)CCC(=O)Nc2ccccn2)cc1
→ -1%	-6%
CCc1noc(C)c1C(=O)NNC(=O)c1ccc(F)cc1
→ -3%	-14%
O=C(NCCN1CCCCC1)Nc1ccc(Cl)cc1
→ -9%	i
COc1cccc(-c2nc(=S)c3c(n2CCCO)CCCC3)c1
→ -9%	-13%
CCOC(=O)c1c(CSc2ccccc2)oc2cc(Br)c(O)c(CN(C)C)c12
→ -19%	-16%
CC(=O)Nc1ccc(S(=O)(=O)NCCC(=O)NCc2ccncc2)cc1
→ 11%	-5%
CC1CCN(S(=O)(=O)c2ccc3c(c2)oc(=O)n3CC(=O)N2c3ccccc3CC2C)CC1 (centres undefined)
→ -26%	?
Fc1cccc(F)c1-n1c(CN2CCOCC2)csc1=S
→ -9%	i
CN(CC(=O)Nc1cccc(F)c1)C(=O)c1ccc(NC2CC2)c([N+](=O)[O-])c1
→ -9%	-20%
O=C(Nc1nnc(S(=O)(=O)N2CCCCCC2)s1)c1ccccc1Br
→ -7%&-1%	-6%&4%
COc1ccc2[nH]c(=O)c(CN(CC3CCCO3)C(=S)Nc3ccc(C)cc3)cc2c1 (centres undefined)
→ -28%	?
CCCCC(=O)Nc1ccc(NC(=O)CC)cc1OC
→ -11%	-12%
O=CN1CCN(C(=O)c2cccc([N+](=O)[O-])c2)CC1
→ 3%	?
COc1ccc(OCCSc2nnc(C(C)NC(=O)c3ccccc3F)n2C)cc1 (centres undefined)
→ -5%	-15%
CNC(=O)c1cn(-c2ccc(Cl)cc2)c(=O)c2ccccc12
→ -6%	-11%
O=C(CN(c1ccc(F)cc1)S(=O)(=O)c1ccccc1)NC1CCCCCC1
→ -15%	-12%
COCCCn1c(Cc2csc(Nc3cccc(Cl)c3)n2)nnc1SCC(=O)OC
→ -4%	i
NC(=O)c1ccccc1OCCOc1ccc(Br)cc1
→ ?	-6%
Cc1cccc(NC(=O)CSCC(=O)Nc2ccc(S(=O)(=O)N3CCOCC3)cc2)c1
→ -10%	-25%
CCOC(=O)c1ccc(S(=O)(=O)NNC(=O)c2cccc(N(C)C)c2)cc1
→ -2%	-11%
Cc1onc(-c2c(F)cccc2Cl)c1C(=O)N(C)CC(=O)Nc1cccc(F)c1
→ -16%	-5%
COC(=O)c1ccccc1C(=O)NCc1nc(N2CCCC2)c2cccc(C)c2n1
→ -12%	-19%
CCOc1ccc(C2C3=C(CCCC3=O)OC(N)=C2[N+](=O)[O-])cc1 (centres undefined)
→ -14%	-14%
CSCC(C)N1CCC(CO)(CCc2ccccc2)CC1 (centres undefined)
→ -9%	-16%
O=C1NC(=O)/C(=C/c2cccc(O)c2)N1
→ -1%	i
COC(=O)c1sccc1NC(=S)N1CCN(c2ccc(F)cc2)CC1
→ -9%	i
COc1ccccc1N1CCN(C2C(=O)Nc3ccccc3-n3nnnc32)CC1 (centres undefined)
→ -27%	i
Cc1ccc(C(=O)NCC(=O)NNC(=O)CN(C)S(=O)(=O)c2ccc(Cl)cc2)s1
→ -4%	-2%
CCN(CC(=O)Nc1c(F)cccc1F)C(=O)COc1cccc2c1OC(C)(C)C2
→ -11%	-16%
CNC(=O)C[C@H]1C(=O)N(CCc2ccccc2)C[C@@H]1c1ccc(OC)cc1
→ -3%	-19%
CC(C)(CNC(=O)CNC(=O)c1ccc(Cl)cc1Cl)N1CCOCC1
→ -3%	-9%
O=[N+]([O-])c1cccc(C(O)C23CN4CN(CN(C4)C2)C3)c1 (centres undefined)
→ -18%	-7%
Oc1oc(-c2ccc(Br)cc2)nc1/C=N/c1ccccn1
→ 9%	-1%
Cc1ccc(NC(=O)CCc2nnc3ccc(N4CCC5(CC4)OCCO5)nn23)cc1F
→ -20%	-16%
COc1cc(/C=N/N=C2/NC(=O)C(c3ccccc3)S2)ccc1O (centres undefined)
→ -17%	-19%
O=c1c2cnn(-c3ccc(F)cc3)c2ncn1Cc1cccc(Cl)c1
→ 1%	-7%
O=C(Nc1cccc([N+](=O)[O-])c1)c1ccc([N+](=O)[O-])o1
→ ?	-16%
COc1ccc(N2C(=O)NC(=O)C2=O)cc1
→ 9%	-8%
COc1ccc(C(=O)NC(C)c2ccc(-n3ccnc3)cc2)cc1S(=O)(=O)N1CCOCC1 (centres undefined)
→ -21%	i
NC(=O)C1CCCN(Cc2ccc3c(c2)CN(Cc2ccccc2)CCO3)C1 (centres undefined)
→ 1%	-5%
O=C(c1ccc(Cl)c(S(=O)(=O)N2CCCCCC2)c1)N1CCCC1
→ -2%	-10%
C#CCOCCOCCOCCNc1nc(N2CCN(C(=O)Cn3cc(CCCN=C(N)N)nn3)CC2)nc(N2CCN(C(=O)[C@H]([C@@H](C)CC)n3cc(CCC(=O)O)nn3)CC2)n1
→ 3%	i
Cc1ccc(S(=O)(=O)N2CCC[C@H]2C(=O)Nc2ccccc2C)cc1
→ 7%	i
COc1cc(Nc2nc3ccccc3nc2NS(=O)(=O)c2ccc([N+](=O)[O-])cc2)cc(OC)c1OC
→ -20%	?
CC(=O)Nc1sc2c(c1C(c1ccccn1)N1CCN(C)CC1)CCCC2 (centres undefined)
→ -12%	-9%

The results go on:
Below each compound – Vaccinia Venus	VACV mCherry inh
CC1=C(C(N)=O)C(c2ccccn2)n2nc(-c3ccccc3Cl)nc2N1 (centres undefined)
→ 3%	2%
C=CCN1C(=O)c2ccc(C(=O)NCCc3ccc(OC)c(OC)c3)cc2C1=O
→ -18%	-15%
CC1(C)CC(=O)C=C(c2cccc(O)c2)C1=O
→ -3%	i
O=C(COC(=O)/C=C/c1ccc(C(F)(F)F)cc1)NCC1CCCO1 (centres undefined)
→ -6%	-13%
CNC(=O)CS(=O)(=O)CC(=O)Nc1cc(OCCOC)c(Cl)cc1Cl
→ -3%	9%
CC1CCN(C(=O)CSc2nnc(CNc3ccc(F)cc3)n2Cc2ccco2)CC1
→ 0%	-11%
CN(C)c1ccc(/C=C/c2nc3ccccc3s2)cc1Cl
→ -4%	-6%
CC(=O)c1ccc(S(=O)(=O)Nc2ccc(-c3cn4c(C)csc4n3)cc2)cc1
→ -7%	-11%
Cc1c(C(=O)NCc2ccccc2)sc2nc[nH]c(=O)c12
→ -7%	i
CC(C)(C)c1ccc(S(=O)(=O)Nc2ccc3c(c2)COC3=O)cc1
→ -6%	i
O=C(CCS(=O)(=O)c1cccs1)Nc1ccc(C(=O)NCc2ccc(F)cc2)cc1
→ -19%	-20%
CC(=O)OCCC(C)C
→ -16%	-12%
O=C(Cn1nc(CNc2ccc(Cl)cc2)[n+]2c1CCCCC2)c1ccc(Cl)cc1
→ 0%	-12%
O=C(CN(CCc1ccccc1)S(=O)(=O)c1ccccc1)NCc1ccc(Cl)cc1
→ -11%	-18%
CCOC(=O)c1[nH]c2ccc(Br)cc2c1NC(=O)CNC
→ -5%	-5%
COc1ccc(C(=O)NC2CC(C)(C)Cc3c2cnn3-c2ccccc2C)c(OC)c1OC (centres undefined)
→ -17%	-18%
NC(=O)C1=C[C@@H](C2CCCCC2)C[C@@H](OCCCCO)O1
→ -6%	i
COc1cc2c(ccc3c4cc(OC)c(OC)cc4c[n+](C)c23)cc1O
→ -9%	-15%
C=C(C)c1ccc(C(C)(C)NC(=O)N(Cc2ccccc2)Cc2ccco2)cc1
→ -9%	i
CN(C)c1oc(-c2ccc(Cl)cc2)nc1S(=O)(=O)c1ccccc1
→ -9%	i
COC(=O)c1cc2sc(Cl)cc2n1Cc1nc(-c2ccccc2F)oc1C
→ -20%	-19%
COc1ccc(CNc2nn3c(-c4cccc(C(=O)N(C)C)c4)cnc3s2)cc1
→ -19%	-20%
Cc1nc2c(OCc3cc(Cl)cc(Cl)c3)cccn2c1N(C)C(=O)CCC1CCCC1
→ -16%	i
O=C(Cc1ccc(NC(=O)C2CCCN(C(=O)C3CC3)C2)cc1)Nc1cccc(C(=O)N2CCCC2)c1 (centres undefined)
→ -9%	i
O=C(NC(c1ccc(-c2ccccc2)cc1)c1cnccn1)C1CCN(Cc2cccs2)CC1 (centres undefined)
→ -6%	i
CN1C(=O)C(CCC(N)=O)NC1=S (centres undefined)
→ -1%	i
O=C(c1cccc(S(=O)(=O)N2CCOCC2)c1)N1CCN(c2ncccn2)CC1
→ -5%	i
O=C(NCc1ccncc1)C(=O)NCC(c1ccco1)N1CCN(c2ccccc2)CC1 (centres undefined)
→ -3%	-23%
CC(=O)Nc1ccc(NC(C)=C(C#N)C#N)cc1
→ -4%	i

From PubChem BioAssay
